LANA-nucl inh = inhibitors of KSHV LANA binding to nucleosomes; 0.3% of 51,000 active; FITC-LANA1-23 / chicken nucleosome fluorescence polarization; stronger effect = lower value; z-score (test concentration not listed); AID 720717;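 active means both repeat wells score below -2 in polarization z-score versus plate sample wells, excluding overly bright wells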;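 further: 100 nL library stock added to about 30 µL; numbers are from one replicate; some results filed as inactive read as strong as hits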
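Test system: purified chicken nucleosomes with FITC-labelled LANA N-terminal peptide (1-23); Input: 240 nM purified chicken nucleosomes (480 nM peptide binding sites), final; Medium: TEN-BT buffer, pH 7.5; Timing: 10–45 min, room temperature; Technique: fluorescence polarization, 480 nm excitation, 535 nm parallel and perpendicular emission; Replication: duplicates.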
BasE inh = inhibitors of Acinetobacter baumannii siderophore enzyme BasE; inhibition, % (test concentration not listed); purified BasE, fluorescence polarization binding displacement; AID 485350; 0.1% of 84,000 active;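 active means both replicates above 25% with normal brightness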;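 further: 0% = negative plate control signal and 100% = positive plate control signal; stock transfer was 100 nL into about 30 µL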
An asterisk follows results filed as active; . = not tested or not shown; & = joins results of further samples. The list is partial; rates above refer to the full screens.

SMILES	LANA-nucl inh	BasE inh
O=c1[nH]c2c(s1)C=Nc1cc3ccccc3cc1N2	-2.27*	23.1
COC(=O)/C=C1\SC(C)C(=O)N1CC(=O)Nc1ccccc1C(F)(F)F (stereo unspecified)	.	-2.0
COc1cccc(CN2C(=O)c3ccccc3C2C(=O)NCC2CCCO2)c1 (stereo unspecified)	0.186	0.6
COc1ccccc1C1C2=C(CC(C)(C)CC2=O)Nc2nc3ccccc3n21 (stereo unspecified)	-0.738	1.1
O=C(NNC1=NCCC1)c1c[nH]c2ccccc12	.	1.8
COc1ccc(C2CCCN2C(=O)Nc2ccc(C)c(C)c2)cc1OC (stereo unspecified)	-0.0095	-2.5
N#CC(c1ccccc1)c1cn2cc(Cl)ccc2n1 (stereo unspecified)	-0.708	-0.9
O=C(Oc1ccc2c(c1)CCCC2)c1cccs1	0.0445	-2.1

SMILES	LANA-nucl inh	BasE inh
COc1cc(C(=O)NC(=S)NC(N)=O)cc(OC)c1OC	.	1.7
CCOC(=O)C1=C(Nc2ccc(Cl)cc2)C(=O)N(C(C)(C)C)C1	0.069	1.7
COCCN1C(c2ccccc2)=CC(=C2C(=O)N(C)C(=O)N(C)C2=O)C2=C1CCCC2	2.05	-2.1
c1ccc(Nc2nnc(CSc3nc4ccccc4s3)s2)cc1	-0.994	3.0
CSc1ncc2c(n1)-c1ccccc1N(C)S2(=O)=O	1.22	1.0
Cc1[nH]c2ccccc2c1C(=O)COC(=O)Cn1c(=O)oc2ccccc21	.	-2.7
O=C1OCCC1OC(=O)C1c2ccccc2Oc2ccccc21 (stereo unspecified)	.	-1.4
FC(F)(F)CNC1CCN(Cc2ccccc2)CC1	.	-1.1

SMILES	LANA-nucl inh	BasE inh
CC12CCC(=O)N1C(C(=O)NC1CCCc3ccccc31)CS2 (stereo unspecified)	.	0.7
COCCNC(=O)c1cc2ccccc2oc1=O	-0.239	0.0
COC(=O)CSC1=C(C#N)C(c2ccco2)C(C(=O)Nc2ccccc2)=C(C)N1 (stereo unspecified)	.	-3.7
CC/S(=N\S(=O)(=O)c1ccc(C)cc1)c1ccccc1 (stereo unspecified)	-0.724	0.8
CCc1cccc(CC)c1N(COC)C(=O)Cn1c(Cc2ccccc2)nc2ccccc21	.	2.0
CCOC(=O)c1c(C)c(C#N)c(N(C(C)=O)C(C)=O)n1-c1ccc(C)cc1	.	3.0
COc1ccc(C(=O)NCc2nnc(SCC(=O)Nc3ccc(C)cc3C)o2)cc1OC	0.039	2.6
COc1cc2c(cc1NC(=O)CC(C)(C)C)oc1ccccc12	.	2.6

SMILES	LANA-nucl inh	BasE inh
COc1ccc(C2(C(=O)NC(C)(C)C)CCCC2)cc1	-0.126	1.3
CC(C)c1cc(C(F)(F)F)n2nc(C(=O)O)cc2n1	0.486	-3.0
N/C(=N/OC(=O)Nc1ccccc1)C1COc2ccccc2O1 (stereo unspecified)	-0.365	1.4
NNc1nnc2c(n1)[nH]c1ccc(F)cc12	0.47	3.2
c1ccc2oc(Cc3nc4ccccc4s3)nc2c1	.	-2.5
O=c1ccc2cc3c([nH]c4ccc(Br)cc43)oc-2c1O	1.84	-19.6
O=c1c2ccccc2c(/C=N/c2ncn[nH]2)c(O)n1-c1cccc(C(F)(F)F)c1	.	-1.1
COCCNS(=O)(=O)c1cccc(C(=O)Nc2ccccc2)c1	1.34	-0.2

Some of the entries above, set out differently.
SMILES: N/C(=N/OC(=O)Nc1ccccc1)C1COc2ccccc2O1 (stereo unspecified)
- LANA-nucl inh = -0.365
- BasE inh = 1.4
SMILES: NNc1nnc2c(n1)[nH]c1ccc(F)cc12
- LANA-nucl inh = 0.47
- BasE inh = 3.2

The results go on.
SMILES	LANA-nucl inh	BasE inh
CCOc1ccc2oc(C(=O)N3CCCCC3C(N)=O)c(C)c2c1 (stereo unspecified)	.	-0.7
COc1ccc(C(=O)Nc2ccccc2)cc1	-0.132	1.6
Cn1c(=O)c2cc(NC(=O)c3ccccc3F)c(=O)oc2n(C)c1=O	.	-15.1
N#Cc1ccc(-c2ccc(Cl)cc2)nc1Cl	-1.13	.
O=C(Cn1c(=O)oc2ccccc21)Oc1ccc2c(c1)OCO2	.	-2.4
COc1ccc(N/C(=N/c2nc(C)cc(=O)[nH]2)NC(=O)c2cccc(Cl)c2)cc1	-0.038	2.6
Cc1ccc2nc(SCC(=O)N3CCCc4ccccc43)nc(=O)n2c1	-0.901	2.2
FC(F)n1c(=S)n(C(F)F)c2ccccc21	.	-0.7

SMILES	LANA-nucl inh	BasE inh
Cc1ccc(S(=O)(=O)N2CCC(CNC(=O)c3cccs3)CC2)cc1	-0.493	-2.0
O=C(O)c1ccc(N=NSCCO)cc1	-0.751	0.2
O=C(CSc1ncnc2sc(-c3ccccc3)cc12)NC1CCS(=O)(=O)C1 (stereo unspecified)	.	-0.3
CC(C)(C)OC(=O)NCc1ccc(C(=O)O)cc1	.	2.5
Cc1cc2nc(CSc3ccccc3NC(=O)c3ccc4c(c3)OCO4)cc(=O)n2o1	2.81	-2.1
CC(C)Cc1c(O)nc(SCC(=O)NC(C)(C)C)[nH]c1=O	.	0.8
O=C(c1cccs1)n1cc(C(F)(F)F)ccc1=O	.	0.1
CC(Oc1ccccc1)c1nc2ccccc2n1C (stereo unspecified)	-1.04	-7.0

SMILES	LANA-nucl inh	BasE inh
COC(=O)c1ccccc1S(=O)(=O)/C(C#N)=C/Nc1nc(SC)nc(C2CC2)n1	.	1.0
CCOC(=O)/C=C1\SC(C)C(=O)N1CC(=O)N(CCC#N)c1ccccc1 (stereo unspecified)	.	1.1
O=C(O)c1cccc(CN2C(=O)c3ccccc3C2=O)c1	.	0.7
CC1CCCCC1NC(=O)CN(C)S(=O)(=O)c1ccc(Cl)cc1 (stereo unspecified)	.	-0.4
OC1CCCN(Cc2ccc(Br)cc2)C1 (stereo unspecified)	-0.151	-1.6
CCOc1ccc(-c2csc(Cn3c(CN4CCN(C)CC4)nc4ccccc4c3=O)n2)cc1	.	-38.6
N#Cc1ccccc1NC(=O)COC(=O)c1ccccc1C(=O)N1CCCC1	.	-1.7
CCOC(=O)Cn1c(=O)oc2cc(S(=O)(=O)N3CCC(C)CC3)ccc21	-1.42	0.4

Profiles as entered above. Order of values: LANA-nucl inh, BasE inh
CCOc1ccc(-c2csc(Cn3c(CN4CCN(C)CC4)nc4ccccc4c3=O)n2)cc1 is entered as ., -38.6
CC1CCCCC1NC(=O)CN(C)S(=O)(=O)c1ccc(Cl)cc1 (stereo unspecified) is entered as ., -0.4
COC(=O)c1ccccc1S(=O)(=O)/C(C#N)=C/Nc1nc(SC)nc(C2CC2)n1 is entered as ., 1.0

Next structures
SMILES	LANA-nucl inh	BasE inh
O=c1[nH]c2cc3[nH]c(=O)c(=O)c3cc2c1=O	-0.75	1.1
O=C(CN1C(=O)c2ccccc2C1=O)NCc1ccccc1	-0.0105	-0.8
CCn1c(SCC(=O)NC(C)c2ccccc2)nnc1-c1ccccc1OC (stereo unspecified)	.	-1.1
COc1ccc(/C=N/NC(=O)Cn2ccnc2C)cc1	0.903	-2.5
COc1ccc(-c2nsc(SCC(=O)N3CCCCC3)n2)cc1	-0.595	-3.8
O=c1[nH]c2nc3ccccc3n2c(O)c1Cc1ccccc1	-0.142	3.7
CC1Cc2ccccc2O1 (stereo unspecified)	.	-0.6
Cc1ccc(SCC(=O)c2cc(C)c(O)c(C)c2)cc1	0.277	.

SMILES	LANA-nucl inh	BasE inh
COCCNC(=O)CN1CCC(NC(=O)c2ccco2)CC1	-0.0165	-1.4
COC(=O)c1ccc2c(=O)n(NC(=O)C3CC3)c(=S)[nH]c2c1	0.938	3.0
O=C(CSc1nc(-c2ccccc2)cc(=O)[nH]1)Nc1ccccc1	-0.665&0.813	3.0&1.1
CC1(C)CC(=O)C(C=NCC(N)=O)=C(O)C1	1.11	-2.7
O=C(N=Nc1c(O)[nH]c2ccccc12)C(O)c1ccccc1 (stereo unspecified)	1.18	2.2
O=C(c1cccc(C(F)(F)F)c1)N1CCc2c([nH]c3ccccc23)C1C(F)(F)F (stereo unspecified)	.	1.2
CCCN1CC2=C(NC(=S)NC2c2ccc(N(C)C)cc2)/C(=C/c2ccc(N(C)C)cc2)C1 (stereo unspecified)	1.01	-5.4
CCOC(=O)Cc1nnc(SCc2cc(=O)n3c4c(sc3n2)CCCC4)n1Cc1ccco1	.	-1.8

SMILES	LANA-nucl inh	BasE inh
O=S(=O)(Cc1ccc(Cl)cc1)C1CCCCC1O (stereo unspecified)	.	0.5
CN(Cc1nc(-c2ccccc2)no1)C(=O)NC1CCCCC1	-0.44	0.8
O=C1C2C3C=CC(C3)C2C(=O)N1CN1CCCCC1 (stereo unspecified)	.	0.9
COc1ccc(N=C2NC(=O)C(CC(=O)Nc3ccc(OC)cc3)S2)cc1 (stereo unspecified)	.	2.5
O=C(NN1CCCCC1)c1oc2ccccc2c1COc1ccccc1	.	-2.1
O=C1c2ccccc2-c2onc3c(Cl)ccc1c23	0.394	26.0
Cc1ccc(CNC(=O)CCn2c(=O)c3cccn3c3cccnc32)cc1	-0.0185	-0.4
O=C(CSc1nc2ccccc2c(=O)[nH]1)NC1CCCC1	-0.891	0.4

SMILES	LANA-nucl inh	BasE inh
O=C(Nc1c(NC2CCCCC2)c2ccccc2oc1=O)c1ccco1	2.89	-3.7
CCC(=O)OCC(=O)C1(OC(=O)CC)C(C)CC2C3CCC4=CC(=O)C=CC4(C)C3(Cl)C(O)CC21C (stereo unspecified)	0.837&1.16	1.9
CC(C)n1cc(C(=O)c2ccccc2O)cc1-c1nnc(-c2ccccc2)o1	.	-0.3
O=C1c2ccccc2NC(c2cccc(F)c2)N1Cc1ccccc1 (stereo unspecified)	.	1.9
CN(C)C(=O)C(CCN1CCC(O)(c2ccc(Cl)cc2)CC1)(c1ccccc1)c1ccccc1	0.901&0.131&0.817&-0.139&0.022	-0.9&-3.5&1.9
Cc1cc(C(=O)O)c(C)n1Cc1ccc(S(N)(=O)=O)cc1	.	-1.7
N#Cc1c(-c2ccc(Cl)cc2)[nH]c(SCc2ccccc2)nc1=S	.	2.0
O=C(OCC(=O)N1CCOCC1)c1ccc(S(=O)(=O)NCc2ccco2)cc1	.	2.2

SMILES	LANA-nucl inh	BasE inh
CCN1C(=O)/C(=N\N=C2\C(=O)N(CC)c3ccccc32)c2ccccc21	.	-0.1
O=C(NCc1ccccc1)c1cc(S(=O)(=O)N2CCCCC2)ccc1N1CCOCC1	.	0.9
CC1CN(S(=O)(=O)c2ccc3c(c2)n(C)c(=O)c(=O)n3C)c2ccccc2S1 (stereo unspecified)	2.58	-0.3
O=C1OC(Nc2ccc3ncccc3c2)c2ccccc21 (stereo unspecified)	0.48	2.8
CC(C)=N/N=c1\sc2ccccc2n1C	.	2.3
Cc1cc(C)n2nc(CC(=O)N3CCN(c4ccccc4)CC3)nc2n1	2.87	-3.3
COc1cc(NC(=S)N2CCN(CCO)CC2)c(OC)cc1Cl	-0.609	0.7
O=C(O)C1CCN(C(=O)CSc2nnc(-c3ccccc3)c(-c3ccccc3)n2)CC1	.	1.6

SMILES	LANA-nucl inh	BasE inh
CCOc1ccc(S(=O)(=O)/N=C(\N)c2ccccc2)cc1	.	-3.8
COc1ccc(NS(=O)(=O)c2ccc(N3C(=O)CC4(CCCC4)C3=O)c(Cl)c2)c(OC)c1	.	-1.1
COc1cc(C(F)(F)F)nc2c(I)c(C(C)(C)C)nn12	-0.376	-1.4
FC(F)(F)C1CCCN(c2nsc3ccccc23)C1 (stereo unspecified)	.	0.2
N#CCc1n[nH]c(=O)c2ccccc12	.	3.8
Cc1cc(C(=O)N2CCCC2)c2c(C)nn(-c3ccccc3)c2n1	0.214	1.1
O=C(Cc1ccccc1)NCCc1c[nH]c2ccccc12	.	-1.3
Cc1onc(-c2ccccc2)c1C(=O)OCC(=O)N1CCCc2ccccc21	.	1.2

SMILES	LANA-nucl inh	BasE inh
CCn1nnc(NC(=O)c2ccccc2)n1	-0.205	0.4
Cc1cc(C(=O)OCc2cscn2)c2ccccc2n1	.	-0.2
COc1ccc(/C=C(\C#N)c2ccc(OC)cc2)cc1	.	-3.6
Cn1c(-c2ccccc2)n[nH]c1=S	.	1.9
CN(c1ccc(OCC(=O)NCC(F)(F)F)cc1)S(=O)(=O)c1ccccc1	.	3.8
Cc1c(C#N)c(NC(=O)CSC(=S)N2CCCC2)n(Cc2ccco2)c1C	.	0.7
O=C(CN1C(=O)c2cccc3cccc1c23)N(Cc1ccccc1)Cc1ccccc1	.	-0.3
COC(=O)c1cc(S(=O)(=O)NCCCN2CCc3ccccc3C2)c[nH]1	-0.104	-0.8

SMILES	LANA-nucl inh	BasE inh
CCc1nc(NCCN2CCOCC2)c(C#N)c2c1CCCC2	.	-0.5
O=S(=O)(NCc1ccccc1)c1ccc(-n2cccn2)cc1	-0.483	-0.8
NNC(=O)c1csc(-c2ccncc2)n1	1.99	-4.0
COc1ccccc1CN(C)C(C)C(=O)Nc1ccc(S(N)(=O)=O)cc1 (stereo unspecified)	.	-5.2
CC(C)N=C(Nc1ccc(Cl)cc1)c1cccnc1	-1.14	.
c1ccc(CCC2CCCCN2)cc1 (stereo unspecified)	0.593	-6.0
NC(=O)C1CCN(CC(O)COc2ccc(F)cc2)CC1 (stereo unspecified)	.	1.2
Cc1nc(C(F)(F)F)ccc1C(=O)Oc1ccc(OC(F)(F)F)cc1	.	0.5
COc1ccc(CNC2CCCC2)cc1	0.513	-2.5
COc1ccc(Nc2cc(C)nc(-c3ccccc3)n2)cc1	.	-3.5
